# Bioassay records: PubChem BioAssay, Broad Institute
# DUX4 txn inh = inhibitors of DUX4-driven ZSCAN4 reporter expression, primary screen, 293T cells, Gaussia and Italica luciferase; 293T-iDUX4 ZSCAN4-Gaussia luciferase reporter, 24 h; stronger effect = lower value; activity change, negative = inhibition, % (no concentration beside the values); actives 0.8% (n = 37,000);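 active means -10% or lower and over 25 points stronger than a control reporter; inconclusive means -10% or lower with a smaller gap; inactive means above -10%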;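 further: 0% = median of neutral control wells and -100% = median of positive control wells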
# DUX4 txn inh difference = recorded beside DUX4 txn inh, whose call it bears; Gaussia minus Italica difference, %; measured here: selective DUX4 reporter inhibition;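 worked out from the two reporters; negative = selective loss of the DUX4 reporter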
# DUX4 txn inh control = further read-out of DUX4 txn inh, marked with its call; activity change, negative = inhibition, %; measured here: Italica tet-on control reporter;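 0 = neutral control and -100 = positive control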
# * = called active by the depositor; ? = inconclusive; · = no result given; & = joins results of further samples. These rows are one share of the data; rates above refer to the full screens.
DUX4 txn inh,DUX4 txn inh difference,DUX4 txn inh control,canonical_smiles
1.4,-1.5,2.9,Cc1ccc(S(=O)(=O)N(C)C[C@@H]2OCCCC[C@H](C)Oc3ccc(NC(=O)c4ccncc4)cc3C(=O)N([C@H](C)CO)C[C@H]2C)cc1
-4.3,-4.6,0.4,Cc1ccccc1S(=O)(=O)N1[C@H](CO)[C@@H](c2ccc(-c3ccc(F)cc3)cc2)[C@@H]1C#N
-2.7,-2.1,-0.6,COc1cccc(-c2cccc(-c3nc(C(=O)O)cc4c3[C@@H](CCO)N(S(=O)C(C)(C)C)C4)c2)c1 (stereo not given in full)
0.2,-2.2,2.4,COc1ccc(NC(=O)Nc2ccc3c(c2)C(=O)N([C@@H](C)CO)C[C@H](C)[C@H](CN(C)S(=O)(=O)c2cn(C)cn2)O3)cc1
?,·,·,COc1ccc2c3c(n(C)c2c1)[C@@H](CO)N(S(=O)(=O)c1ccc(C)cc1)CC31CCN(Cc2cccnc2)CC1
-3.5,-6.1,2.6,C[C@@H]1CN([C@@H](C)CO)C(=O)CCCn2nncc2CO[C@H]1CN(C)S(=O)(=O)c1ccc(-c2ccccc2)cc1
-3.0,-2.2,-0.8,O=C(c1ccncc1)N1CC2(C1)[C@H](c1ccccc1)[C@@H](CO)N2C(=O)CC1CC1
3.0,-0.4,3.4,CCC(=O)N1CC(=O)N2[C@H](CO)[C@H](c3ccc(-c4ccccc4C)cc3)[C@@H]2C1
3.7,4.4,-0.8,C[C@H]1CN([C@@H](C)CO)C(=O)c2cc(NC(=O)NC3CCCCC3)ccc2O[C@H]1CN(C)Cc1ccncc1
?,·,·,CCS(=O)(=O)N1CC2(C1)[C@H](c1ccccc1)[C@H](CO)N2CC1CCCC1
10.6,7.0,3.6,O=C(c1ccccc1)N1CC(=O)N2[C@H](CO)[C@@H](c3ccc(C#CC4CC4)cc3)[C@H]2C1
17.1,8.2,8.9,CC1C=NC(S(=O)(=O)N2CC[C@@H]3[C@@H](CO)N(C)c4ccc(-c5cccc(F)c5)cc4[C@@H]32)=N1 (stereo not given in full)
-5.9,-2.4,-3.6,O=C(C[C@H]1CC[C@H]2[C@@H](COC[C@@H](O)CN2Cc2cccc(F)c2)O1)NCC1CCCCC1
?,·,·,O=C(C[C@H]1CC[C@@H]2[C@H](COC[C@H](O)CN2S(=O)(=O)c2ccc(Cl)cc2)O1)NCc1ccc(Cl)c(Cl)c1
5.1,2.0,3.1,CO[C@H](CN(C)C(=O)C1CCOCC1)[C@H](C)CN(C(=O)Nc1ccc(C(F)(F)F)cc1)[C@H](C)CO
3.9,8.4,-4.5,CN1[C@@H]2Cn3c(ccc(-c4ccncc4)c3=O)[C@H]1[C@@H](C(=O)Nc1nccs1)[C@@H]2CO
5.9,1.5,4.4,CC=Cc1ccc2n(c1=O)C[C@@H]1[C@@H](CO)[C@H](C(=O)NC3CCC3)[C@H]2N1C(=O)c1cnccn1 (mixture of isomers)
0.1,2.8,-2.7,CCNC(=O)[C@H]1[C@H](CO)[C@H]2Cn3c(ccc(C4=CCCC4)c3=O)[C@@H]1N2C(=O)C1CC1
-6.9,-2.8,-4.1,C[C@H](NC(=O)[C@@H]1[C@@H](CO)[C@@H]2Cn3c(ccc(C4=CCCCC4)c3=O)[C@@H]2N1C)c1ccccc1
-0.3,-1.5,1.2,COCCN(C[C@H]1N[C@H](CO)[C@@H]1c1ccccc1)C(=O)NC1CCCC1
0.8,2.7,-1.9,N#C[C@H]1[C@@H](c2ccc(C#CC3CC3)cc2)[C@@H](CO)N1S(=O)(=O)c1ccccc1
2.2,7.8,-5.6,CO[C@H]1CN(C)C(=O)c2cc(NC(=O)C3CC3)ccc2OC[C@@H](C)N(CC2CC2)C[C@H]1C
-2.6,-8.0,5.4,CN1[C@H](C(=O)NCCc2ccccc2)[C@@H](CO)[C@@H]2Cn3c(ccc(-c4ccccc4)c3=O)[C@@H]21
-2.0,-1.5,-0.5,C[C@@H]1CN([C@@H](C)CO)C(=O)c2cc(N(C)C)ccc2O[C@H]1CN(C)S(=O)(=O)c1cccs1
-36.1*,-27.4*,-8.6*,COc1ccccc1C#Cc1ccc([C@H]2[C@H](CO)N3CCCCN(C(=O)C4CCC4)C[C@@H]23)cc1
5.2,2.7,2.4,COc1cccc(-c2cn(CC[C@@H]3CC[C@@H](NC(=O)CN(C)C)[C@H](CO)O3)nn2)c1
-4.7,-3.4,-1.3,CCCC#Cc1ccc([C@H]2[C@@H](C#N)N(C(=O)C3CCOCC3)[C@H]2CO)cc1
-1.9,-0.4,-1.5,C[C@@H]1CN([C@@H](C)CO)C(=O)CCCn2nncc2CO[C@@H]1CN(C)C(=O)c1ccncc1
5.8,0.2,5.6,O=C(Nc1ccccc1)[C@H]1[C@H](CO)[C@H]2Cn3c(cccc3=O)[C@H]2N1Cc1ccccc1Cl
-2.6,-6.3,3.7,C/C=C/c1ccc2c(c1)O[C@@H](CN(C)C(=O)c1ccccn1)[C@H](C)CN([C@@H](C)CO)S2(=O)=O
-1.0,-5.9,4.8,COc1ccc2c3c([nH]c2c1)[C@H](CO)N(C(=O)c1ccc(F)cc1)CC31CCN(C(=O)NC(C)C)CC1
1.3,-4.3,5.6,COc1cccc(CNC(=O)C[C@H]2CC[C@@H]3[C@H](COc4ccc(NC(C)=O)cc4C(=O)N3C)O2)c1
9.4,13.0,-3.6,Cc1cccc(-c2ccc([C@H]3[C@@H](CO)N4C(=O)CN(C(=O)c5cnccn5)C[C@H]34)cc2)c1
-3.5,0.5,-4.0,CN(C)CC(=O)N1[C@@H]2c3cccc(=O)n3C[C@@H]2[C@@H](CO)[C@@H]1C(=O)NCc1ccccc1F
?,·,·,O=C(C1CCC1)N1CC[C@@H]2[C@H](CO)Nc3ccc(C#Cc4cccc(F)c4)cc3[C@@H]21
-1.1,-1.4,0.3,CN(C)C(=O)C[C@@H]1CC[C@H](NC(=O)Nc2cccc(F)c2)[C@@H](CO)O1
1.7,-10.1,11.8,CCCC#Cc1ccc([C@@H]2[C@H](CO)N3C(=O)CN(C(=O)c4cccc(F)c4)C[C@@H]23)cc1
0.4,1.0,-0.6,COc1cccc(C#Cc2ccc([C@H]3[C@@H](CO)N(C(=O)C4CC4)[C@H]3C#N)cc2)c1
1.0,2.9,-1.9,CO[C@@H](CN(C)C(=O)c1ccc2c(c1)OCO2)[C@@H](C)CN([C@H](C)CO)S(=O)(=O)c1ccc(F)cc1
0.6,2.3,-1.7,O=C(Nc1ccccc1Cl)N1C[C@@H]2[C@H](c3ccccc31)[C@H](CO)N2Cc1ccccc1
2.3,0.2,2.1,C/C=C/c1cnc2c(c1)C(=O)N([C@@H](C)CO)C[C@H](C)[C@@H](CN(C)CC1CCOCC1)O2
1.2,-2.6,3.8,COc1cccc(NC(=O)N(C)C[C@H]2OCc3cnnn3CCCC(=O)N([C@@H](C)CO)C[C@@H]2C)c1
1.3,-2.7,3.9,O=C(Nc1ccc2c(c1)[C@@H]1C[C@@H](CC(=O)N3CCCCC3)O[C@H](CO)[C@@H]1O2)C1CCOCC1
19.0,14.3,4.7,O=S(=O)(c1ccccc1)N1CC[C@H]2[C@H](CO)Nc3ccc(C#Cc4ccccc4F)cc3[C@H]21
?,·,·,CCCN1[C@H](C(=O)N[C@H](C)c2ccccc2)[C@@H](CO)[C@@H]2Cn3c(ccc(-c4cccc(F)c4)c3=O)[C@@H]21
?,·,·,CC=Cc1ccc2n(c1=O)C[C@H]1[C@H](CO)[C@@H](C(=O)Nc3ccc(-c4ccccc4)cc3)[C@@H]2N1C(=O)CC (mixture of isomers)
?,19.9,-7.6,Cc1cccc(-c2ccc(C3[C@@H]4CN(C(=O)c5ccncc5)C[C@H]3N4)cc2)c1 (stereo not given in full)
1.9,4.2,-2.3,C[C@H](CO)N1C[C@H](C)[C@H](CN(C)C(=O)C2CCOCC2)Oc2ncc(-c3cccc(C#N)c3)cc2C1=O
-1.5&-1.5,-4.0&-2.3,2.5&0.8,O=S(=O)(c1cccc(Cl)c1)N1[C@@H]2CNC[C@H]1C2c1ccc(-c2cccc(F)c2)cc1 (stereo not given in full)
4.1,1.3,2.8,C[C@H]1CN([C@@H](C)CO)C(=O)c2cc(C3=CCCC3)cnc2O[C@@H]1CN(C)C(=O)Nc1ccc(C(F)(F)F)cc1
-1.0,-5.1,4.1,C[C@H](CO)N1C[C@H](C)[C@@H](CN(C)Cc2ccc3c(c2)OCO3)Oc2ccc(NS(=O)(=O)c3cn(C)cn3)cc2CC1=O
21.7,1.1,20.6,COc1ccc2c3c(n(C)c2c1)[C@@H](CO)N(C(=O)CN(C)C)CC31CN(C(=O)C2CCC2)C1
4.5,-1.5,5.9,O=C(C[C@@H]1CC[C@@H]2[C@H](COC[C@H](O)CN2C(=O)Nc2cccc(Cl)c2)O1)N1CCCCC1
3.8,3.2,0.6,CNC[C@@H]1Oc2ccc(NS(=O)(=O)c3c(C)noc3C)cc2CC(=O)N([C@@H](C)CO)C[C@@H]1C
4.7,-0.2,4.9,CCN1[C@@H]2c3cccc(=O)n3C[C@@H]2[C@@H](CO)[C@@H]1C(=O)NC1Cc2ccccc2C1
3.7,10.6,-6.9,C[C@@H]1CN([C@@H](C)CO)C(=O)CCCn2cc(nn2)CO[C@H]1CN(C)S(C)(=O)=O
11.1,8.9,2.2,COc1ccc2c3c(n(C)c2c1)[C@@H](CO)N(C(=O)CN1CCOCC1)CC31CCN(Cc2ccncc2)CC1
-8.3,-9.4,1.1,C[C@H]1CN([C@@H](C)CO)C(=O)c2c(c3ccccc3n2C)-c2ccccc2CO[C@@H]1CN(C)Cc1cccnc1
-9.0,-11.3,2.3,Cc1ccc(S(=O)(=O)N2CC[C@@H]3[C@@H](CO)N(C)c4ccc(-c5ccccc5F)cc4[C@@H]32)cc1
-6.2,-7.4,1.2,O=C(CC1CC1)N1CC2(C1)[C@H](c1ccccc1)[C@@H](CO)N2Cc1ccccn1

# Additional compounds follow.
DUX4 txn inh,DUX4 txn inh difference,DUX4 txn inh control,canonical_smiles
?,·,·,CO[C@H]1CN(C)C(=O)c2cc(NC(=O)c3nc4ccccc4s3)ccc2OC[C@@H](C)NC[C@@H]1C
0.7,2.3,-1.6,COc1ccc([C@@H]2C/C=C\C[C@H](c3ccc(F)cc3)NC(=O)CCC(=O)N2)c(OC)c1
2.4,-2.4,4.8,CCC(=O)N1[C@@H]2Cn3c(ccc(-c4ccccc4)c3=O)[C@H]1[C@@H](C(=O)N(C)C)[C@@H]2CO
-2.5,-5.5,3.0,COc1cccc(CNC(=O)C[C@H]2CC[C@@H]3[C@@H](COc4ccc(NC(=O)c5cccs5)cc4C(=O)N3C)O2)c1
-2.0,-11.0,9.0,COC(=O)C[C@@H]1C[C@H]2c3cc(NC(=O)Nc4ccccc4)ccc3O[C@H]2[C@H](CO)O1
3.7,-0.6,4.4,O=C(C[C@H]1C[C@@H]2c3cc(NC(=O)Nc4ccccc4F)ccc3O[C@@H]2[C@H](CO)O1)NCc1ccc2c(c1)OCO2
-6.2,-18.4,12.2,CO[C@@H]1CN(C)C(=O)c2ccc(NC(=O)Nc3ccc4c(c3)OCO4)cc2OC[C@H](C)NC[C@@H]1C
1.4,-3.8,5.1,Cc1ccc(S(=O)(=O)Nc2ccc3c(c2)C(=O)N([C@H](C)CO)C[C@@H](C)[C@H](CN(C)S(=O)(=O)c2cccs2)OCCCC[C@H](C)O3)cc1
1.0,2.3,-1.3,COc1ccccc1CN1[C@H](CO)[C@@H]2c3ccccc3N(C(=O)C3CCCCC3)C[C@@H]21
-0.5,-1.4,1.0,O=C(C[C@H]1CC[C@@H]2[C@H](COC[C@H](O)CN2C(=O)C2CC2)O1)NCc1ccccc1Cl
4.3,9.3,-5.0,C[C@@H]1CN([C@@H](C)CO)C(=O)CCCn2cc(nn2)CO[C@@H]1CN(C)C(=O)Nc1cccc2ccccc12
?,·,·,COCC(=O)N1CCC2(CC1)CN(Cc1ccccc1Cl)[C@@H](CO)c1c2c2ccc(OC)cc2n1C
1.5,0.0,1.5,C[C@H]1CN([C@@H](C)CO)C(=O)c2cc(C#CC(C)(C)O)cnc2O[C@@H]1CN(C)C(=O)C1CCOCC1
